Screening data (PubChem)
Rango complex inh: prevents formation of the Rango-importin beta complex. Rango CFP/YFP FRET sensor + importin beta, 45 min. Potency, µM (series often up to 92.2 µM), for inactives: at the top dose inhibition of complex formation. 340,000 tested, 0.031% active; active = rising FRET ratio curve, often small or poorly fitted; inconclusive = mostly compound fluorescence or quenching in the first reads; inactive = flat curves in all reads;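 also: potency is read from the fitted curve at half-maximal effect; 0% = DMSO wells and 100% = buffer wells lacking importin beta; nearly all actives have a fitted effect of over 15% in size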
Target sequence (Q14974 whole entry, looked up): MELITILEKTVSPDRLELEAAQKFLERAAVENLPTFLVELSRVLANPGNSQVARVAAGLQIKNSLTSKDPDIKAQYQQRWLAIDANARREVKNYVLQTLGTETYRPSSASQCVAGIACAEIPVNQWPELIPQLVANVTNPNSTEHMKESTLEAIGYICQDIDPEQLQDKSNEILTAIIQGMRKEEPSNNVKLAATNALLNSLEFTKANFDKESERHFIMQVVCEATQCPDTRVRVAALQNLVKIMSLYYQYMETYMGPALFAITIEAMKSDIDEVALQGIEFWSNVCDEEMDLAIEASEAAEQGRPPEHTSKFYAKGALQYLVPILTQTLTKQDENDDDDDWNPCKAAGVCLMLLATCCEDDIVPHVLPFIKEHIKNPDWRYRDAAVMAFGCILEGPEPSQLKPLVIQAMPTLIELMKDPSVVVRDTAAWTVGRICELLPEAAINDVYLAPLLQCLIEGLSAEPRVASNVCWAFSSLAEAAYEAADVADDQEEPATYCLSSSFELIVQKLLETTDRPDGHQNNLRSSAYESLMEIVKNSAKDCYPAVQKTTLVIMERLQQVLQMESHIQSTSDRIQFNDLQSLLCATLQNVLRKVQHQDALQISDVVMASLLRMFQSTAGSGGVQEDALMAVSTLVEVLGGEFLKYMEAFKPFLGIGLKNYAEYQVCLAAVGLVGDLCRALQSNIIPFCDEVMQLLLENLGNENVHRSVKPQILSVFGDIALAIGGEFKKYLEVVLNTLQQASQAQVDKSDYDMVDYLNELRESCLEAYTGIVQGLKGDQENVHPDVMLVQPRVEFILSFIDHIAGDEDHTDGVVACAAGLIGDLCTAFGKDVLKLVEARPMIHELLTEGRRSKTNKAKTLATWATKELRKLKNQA
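Inhibition scored from the CFP 486 nm/YFP 530 nm FRET ratio 45 min after adding 0.125 microM importin beta to 50 nM Rango biosensor preincubated 5 min with compound (room temperature, PBS with DTT, Tween-20, BSA). No-importin wells as positive control.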
Rango dissoc inh: inhibitors of RanGTP-induced Rango-importin beta complex dissociation; Biochemical FRET Rango-importin beta, RanGTP-induced dissociation; 340,000 tested, 0.071% active; O95149+P62826; Potency, µM (titrated, usually from 46.1 µM), for inactives: at the top dose activity change, negative = inhibition; active means falling FRET ratio curve, often poorly fitted, with flat reads before Ran was added; inconclusive means other falling curves, or compound fluorescence or quenching; inactive means flat or rising ratio curve;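 also: potency is read from the fitted curve at half-maximal effect; % of control where 0% means no effect; nearly all actives have a fitted effect of over 45% in size; -100% = wells without RanGTP and RCC1; the record marks most hits as doubtful in a second field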
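Recombinant Rango FRET biosensor (EYFP–snurportin 1 IBB–cerulean CFP10) at 0.1 uM premixed with 0.25 uM importin beta in PBS, 1 mM DTT, 0.02% Tween-20, 0.1% BSA. Compound added 5 min; RanGTP-RCC1 (0.6 uM Ran, 2 mM GTP, 0.2 uM RCC1) then triggers release, read at 45 min.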
miR-21 FLuc: miR-21 reporter, rising signal; 340,000 tested, under 10 active; AID 2288; HeLa miR-21 FLuc reporter, luciferase, 48 h; Potency, µM (series often up to 38.3 µM), for the others: at the top dose reporter change, positive = more light; active = well fitted rising curve with a large enough effect; inconclusive = small, poorly fitted or top-dose-only effect; inactive = no such curve, though single readings can be large or run the other way;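 also: % of control where 0% means no effect; miR-21 action dims this reporter so a rising signal means less miR-21 action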
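HeLa cells endogenously expressing miR-21, stably carrying CMV-driven firefly luciferase with a downstream miR-21 binding site, 2000 cells/well. Titrations up to approximately 40 uM, 48 hours; luciferase luminescence read.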
GLA inh pH 4.5: alpha-galactosidase A (human) inhibition, pH 4.5; purified enzyme, 4-MU-alpha-Gal fluorescence, pH 4.5; activity change, negative = inhibition, % at 105 µM; 230,000 tested, under 10 active; AID 1467; inconclusive = small, poorly fitted or top-dose-only inhibition, or a rising curve; inactive = flat fitted curve, though single readings scatter; no compound was filed as active;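 also: 0% = full activity with enzyme and -100% = basal without enzyme; dose as in the result columns while the protocol names 77 µM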
* marks the source's active call; other numbers are inactive results; ? = inconclusive; · = no result given; & = joins results of further samples. Not all compounds are listed; the hit share may differ from the screen's.

compound,miR-21 FLuc,GLA inh pH 4.5,Rango complex inh,Rango dissoc inh
CN(C(=O)c1ccc(Oc2ccc([N+](=O)[O-])cc2)cc1)C1CCCCC1,19%,·,-0.9%,7%
O=C(COC(=O)COc1ccccc1[N+](=O)[O-])Nc1ccc(S(=O)(=O)N2CCCCC2)cc1,3%,0,-1.0%,9%
Cc1cc(=O)oc2cc(OC(=O)c3ccccc3)ccc12,1%,?,3.8%,-12%
CCOc1cccc(N2C(=O)CC(NNC(=O)c3ccc(Br)o3)C2=O)c1 (stereo unspecified),-1%,-5,-2.5%,4%
COc1cccc2c1C(=O)c1c(O)c3c(c(O)c1C2=O)C[C@@](O)(C(=O)CO)C[C@@H]3O[C@H]1C[C@H](N)[C@@H](O)[C@H](C)O1,·,·,17%,-16%
O=C1/C(=C/c2cccnc2)SC(=S)N1C1CCS(=O)(=O)C1 (stereo unspecified),-3%,1,0.6%,-6%
CCC(=O)Nc1ccc(-c2nnc(SCC(=O)NCC3CCCO3)n2C)cc1 (stereo unspecified),0%,8,2.4%,-4%
O=C1O[C@@H]([C@H](O)CO)C(O)=C1O,·,·,1.0%,-12%
O=C(NNC(=O)C1CCN(S(=O)(=O)c2cccc(C(F)(F)F)c2)CC1)C1CC1,-2%,4,-2.7%,-8%
Cn1c(=O)c2c(nc(Sc3ncccn3)n2Cc2ccccc2Cl)n(C)c1=O,2%,8,4.7%,1%
O=C(Cc1cccs1)Nc1ccc2c(c1)C(=O)OC2,-12%,0,1.0%,2%
COc1ccc(CCNC(=O)CO/N=C/c2cc3c(cc2Br)OCO3)cc1OC,-4%,-7,4.1%,1%
CCCCCOc1cccc(C2C(C(=O)c3cccs3)=C(O)C(=O)N2CCN2CCOCC2)c1 (stereo unspecified),·,·,0.2%,-9%
Cc1ccc(CS(=O)(=O)CCC(=O)NCCC2=CCCCC2)cc1,-2%,-2,1.8%,9%
Cc1ccc(-c2cc(=O)c3cc(F)ccc3[nH]2)cc1,-16%,13,0.6%,-7%
COc1cccc(C(CC(=O)NCC2CCCO2)NS(=O)(=O)c2ccc(C)cc2)c1OC (stereo unspecified),-2%,-16,2.7%,13%
CC1CCCC(C)N1CCNC(=O)Cn1nc(-c2ccccc2)ccc1=O (stereo unspecified),-5%,-4,0.3%,-10%
COc1ccc(CCNS(=O)(=O)c2ccc(Br)s2)cc1,-41%,·,-2.7%,0%
COc1ccc(C(=O)/C=C/c2ccc(OC)c(Cn3nnc4ccccc43)c2)cc1,30%,2,2.0%,-17%
O=C(O)Cn1c(Cc2ccccc2)nc2ccccc21,-6%,·,3.2%,6%
Cc1ccc(-c2csc(NC(=O)CSc3nc4ccccc4[nH]3)n2)cc1,-3%,4,-2.5%,14%
CCOC(=O)c1c(-c2ccccc2)c(C(C)=O)c(=O)n(C)c1C,2%,9,-0.4%,20%
CCn1nnnc1-c1ccc(OC)c(S(=O)(=O)N2CCCCC2)c1,-4%,5,-2.7%,-4%
NCCOc1ccc(C2CCCCC2)cc1,-4%,-1,11%,-16%
CCN(CC)CCOC(=O)c1ccc(Cl)cc1Cl,-2%,6,3.6%,13%

Complete entries, looked up by structure. Values in the order: miR-21 FLuc	GLA inh pH 4.5	Rango complex inh	Rango dissoc inh
`COc1ccc(C(=O)/C=C/c2ccc(OC)c(Cn3nnc4ccccc43)c2)cc1` in the list: 30%	2	2.0%	-17%
`O=C1O[C@@H]([C@H](O)CO)C(O)=C1O` in the list: ·	·	1.0%	-12%
`CCn1nnnc1-c1ccc(OC)c(S(=O)(=O)N2CCCCC2)c1` in the list: -4%	5	-2.7%	-4%
`COc1ccc(CCNC(=O)CO/N=C/c2cc3c(cc2Br)OCO3)cc1OC` in the list: -4%	-7	4.1%	1%

Additional entries:
compound,miR-21 FLuc,GLA inh pH 4.5,Rango complex inh,Rango dissoc inh
CC1CCCCC1NC(=O)CN1C(=O)c2cccc(N)c2C1=O (stereo unspecified),-1%,10,?,?
COc1ccc2[nH]c3c(c2c1)CCN1C(=O)C(CC(=O)NCCCN(C)C)C[C@H](C(=O)N2CCOCC2)[C@@]31CCC1CCCC1 (stereo partly specified),·,·,-0.1%,-1%
O=C(O)CCCNS(=O)(=O)/C=C/c1ccccc1,3%,-1,-0.1%,5%
CN(CC(=O)Nc1ccccc1C(F)(F)F)C(=O)CCc1nc2ccccc2c(=O)[nH]1,·,·,-3.7%,-8%
COc1cc2c(cc1OC)C(c1cc3ccc(C)cc3[nH]c1=O)N(C(=O)c1ccco1)CC2 (stereo unspecified),16%,·,0.0%,1%
COc1ccc(NS(=O)(=O)c2ccc3c(c2)oc(=O)n3C)c(OC)c1,-1%,-1,3.7%,-22%
Cc1ccc(-c2csc(/C=C3/SC(C)C(=O)N3CC(=O)Nc3ccccc3F)n2)cc1 (stereo unspecified),·,·,?,-3%
COC(=O)c1cc(C)sc1NC(=O)CCc1ccccc1,-2%,·,2.6%,-7%
Cn1ccnc1SCC(=O)c1ccc(OC(F)F)cc1,-45%,·,-1.1%,17%
O=C(CSCc1cc(=O)n2ccsc2n1)Nc1ccc(F)cc1,-2%,·,-0.3%,-3%
COc1ccc(N/C=C/C(=O)c2ccc(OC)c(OC)c2)cc1,-30%,1,?,?
O=C(CN1C(=O)NC(c2ccccc2)(c2ccccc2)C1=O)NCCc1ccc(F)cc1,·,·,4.4%,-10%
CCOC(=O)CCNC(=O)Nc1cc2nc(C)n(Cc3cccc(Cl)c3)c2nc1C,-2%,·,-0.2%,-7%
O=C(O)C1Nc2c(O)cccc2C2C=CCC12 (stereo unspecified),18%,10,?,-18%
Cc1cc(C(F)(F)F)n(-c2nc(C(=O)NNS(=O)(=O)c3ccccc3)cs2)n1,-5%,-1,-0.9%,18%
CCOC(=O)C(Cc1ccc(OC)c([N+](=O)[O-])c1)NC(=O)CCC(=O)Nc1ccc(OC)cc1 (stereo unspecified),-1%,7,1.2%,5%
Cc1c(C(=O)NCc2ccco2)sc2nc(-c3ccccc3)cn12,-14%,-12,2.4%,7%
C=CCN1C(=O)C(C(C)CC)NC1=S (stereo unspecified),0%,5,-2.6%,0%
CCc1ccc(OCC(=O)N(C)C2CCS(=O)(=O)C2)cc1 (stereo unspecified),-6%,14,-1.9%,-1%
CCN(CCn1cccn1)C(=O)CCc1nnc(C2(c3ccc(Cl)cc3)CCC2)o1,-41%,6,4.6%,-10%
CCc1cccc(C)c1NC(=O)c1ccc2c(c1)CCN2S(C)(=O)=O,-3%,·,0.8%,-5%
CC(C)[C@H](NC(=O)c1ccco1)C(=O)OCC(=O)c1ccc2c(c1)NC(=O)CO2,0%,4,-2.2%,-10%
CC(=O)N1N=C(c2ccccc2)OC12CCCC2,0%,2,0.5%,-11%
Cc1ccc(-c2cc(C(=O)NCC3CCCO3)no2)cc1 (stereo unspecified),-50%,-8,-2.8%,11%
COc1ccccc1C(=O)NCCc1c(C)[nH]c2c(C)ccc(F)c12,-10%,3,5.0%,-12%
O=C(C#Cc1ccccc1)Nc1ccc(F)cc1,27%,·,8.8%,23%
O=C(CN1CCOCC1)N/N=C/c1ccco1,3%,12,1.5%,-5%
O=C1c2ccccc2C(=O)N1Cc1nc2ccccc2c(=O)n1CCN1CCOCC1,·,·,2.4%,4%
COc1ccc2c(c1)C(C)=CC(C)(C)N2S(=O)(=O)c1ccc(Br)cc1,?,-5,0.2%,-2%
O=C(CN1CCN(CC(=O)Nc2ccccc2Cl)CC1)Nc1ccc(F)c(F)c1,9%,·,0.6%,-6%
O=C(/C=C(\c1ccccc1)n1cncn1)c1ccccc1,-17%,3,-2.9%,17%
COc1ccc(C)cc1S(=O)(=O)n1c([N+](=O)[O-])cnc1C,1%,·,?,7%
CN1CCN(C(=O)/C=C/c2cn(-c3ccccc3)nc2-c2ccc3c(c2)OCCO3)CC1,2%,5,0.1%,-16%
CCOc1ccc2nc(/N=C/c3c(C)[nH]n(-c4ccc(C)cc4)c3=O)sc2c1,-43%,1,?,-12%
COC(=O)C1=C(C)NC2=C(C(=O)CCC2)C1c1coc2ccccc2c1=O (stereo unspecified),1%,-3,-2.0%,-15%
Cc1cc(C)nc(SC2=CS(=O)(=O)c3ccccc32)n1,1%,0,2.7%,-2%
CCOc1ccccc1NC(=O)CSc1ccc(-c2ccco2)nn1,-2%,·,2.9%,2%
COCCNC(=O)/C(C#N)=C/c1ccc(O)c([N+](=O)[O-])c1,-1%,-1,-3.2%,14%
CCOc1cc(C(=S)N2CCOCC2)ccc1OS(=O)(=O)c1ccc(NC(C)=O)cc1,24%,-4,5.9%,-6%
Cc1cc(C(=O)O)c(C)n1-c1ccccc1,-7%,4,1.6%,0%
O=C(CNC1CCCCC1)N1CCc2ccccc2C1,0%,8,5.6%,24%
Cc1cc(C)c(NC(=O)CSc2cccc[n+]2[O-])c(C)c1,·,·,0.0%,6%
O=C(CSc1nnc(-c2cccnc2)o1)Nc1cccc(Cl)c1,-51%,·,-0.6%,-1%
O=C(Nc1cccc2cccnc12)c1cccc([N+](=O)[O-])c1,-36%,·,-1.7%,20%
CN(C)c1ccc(S(=O)(=O)NCC(=O)OCC(=O)Nc2cc(Cl)cc(Cl)c2)cc1[N+](=O)[O-],-3%,-7,-1.5%,9%
O=C(CC(=O)c1ccccc1)Nc1ccccc1C(F)(F)F,-28%,·,0.0%,-8%
CCN(CC)C(=O)CN(C#N)c1nc(OC)nc(N(C)C)n1,6%,0,-1.6%,-9%
O=C(N[C@@H](Cc1c[nH]c2ccccc12)C(=O)O)C1CCN(S(=O)(=O)c2cccs2)CC1,0%,·,1.6%,-9%
CC(C)NC(=O)N(C)C[C@H]1Oc2ccc(NS(=O)(=O)c3cccs3)cc2C(=O)N([C@H](C)CO)C[C@@H]1C,·,·,0.2%,-4%
COc1ccc(CCN2C(=O)C3C4CC(C5C(C(N)=O)=NOC45)C3C2=O)cc1OC (stereo unspecified),-2%,2,-1.0%,2%

(cont.)
compound,miR-21 FLuc,GLA inh pH 4.5,Rango complex inh,Rango dissoc inh
C=C(C)C(=O)Nc1nnc(-c2cccs2)s1,0%,-5,1.1%,14%
COc1ccc(OCC(=O)N/N=C/c2ccncc2)cc1,6%,10,0.1%,0%
Nc1nc2nc[nH]c2c(=O)[nH]1,·,·,-1.8%,4%
COCc1cc(Sc2ccc(Br)cc2)nc(-c2ccccc2)n1,-8%,2,-1.0%,23%
Nc1cc(C(=O)OCC(=O)NCc2ccco2)ccc1Cl,0%,3,2.0%,-3%
C#CCOCCOCCOCCNc1nc(OC)nc(N2CCN(C(=O)[C@H](CCCCN)n3cc(C(N)CO)nn3)CC2)n1 (stereo partly specified),4%,-2,·,·
O=C(O)C1SCCN1S(=O)(=O)c1ccc2ccccc2c1 (stereo unspecified),0%,-1,-2.7%,-3%
CC1=C(C(=O)NC2CC(C)(C)Cc3c2cnn3-c2ccc(C)cc2)OCCO1 (stereo unspecified),-5%,·,0.3%,5%
CCCOc1ccc(N2CC(C(=O)Nc3ccccc3C(=O)NCc3ccco3)CC2=O)cc1 (stereo unspecified),11%,-27,4.7%,-11%
Cn1c(=O)n(C)c2cc([N+](=O)[O-])c(N3CCN(CCO)CC3)cc21,-1%,4,1.0%,-7%
Cc1cccc(NC(=S)NC2CCCCCC2)c1C,-2%,-15,0.3%,1%
O=C(O)C1=C[C@@H](C2CCCCC2)C[C@@H](OCc2ccc(CO)cc2)O1,4%,0,2.4%,13%
COc1c2ccoc2cc2oc(=O)ccc12,·,1&-4,-0.8%,-9%
Cc1cccc2cc(COC(=O)c3ccco3)c(=O)[nH]c12,4%,-10,3.5%,-3%
CCN(CC)S(=O)(=O)c1cc(NS(=O)(=O)c2cccc(Cl)c2)ccc1C,9%,-14,7.7%,2%
